HCMV UL50-53 inh: inhibitors of HCMV UL50-UL53 nuclear egress complex interaction. HTRF UL50-UL53 interaction, normalized percent inhibition. inhibition, % (no concentration beside the values). actives 0.15% (n = 190,000);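 active means both replicates at 50% or more, plus weaker picks with an unusually low signal ratio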;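 further: stock transfer was 100 nL into about 20 µL; 0% = negative control wells and 100% = wells with untagged competitor protein; inactives centre near -12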
Sa growth inh: blocks Staphylococcus aureus growth; S. aureus RN4220 growth, OD600, 20 h, 42 °C; hits give low values; relative growth, % (no concentration beside the values); actives 0.53% (n = 170,000);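 active means growth at 42 °C up to 50% and 20 or more points under that at 30 °C, or under 10% at both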;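 further: 300 nL library stock went into each well; scaled to the means of positive and negative controls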
GIV-Gai inh: blocks GIV peptide binding to rat Galpha-i3; Galpha-i3/FITC-GIV peptide fluorescence polarization, 90 min; hits give low values; scaled: aluminum fluoride 0%, vehicle 100%; actives 0.42% (n = 210,000); AID 1224905; percent of control (FP), % (concentration not given with the values);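 active means replicate mean at 85% of control or lower, very high polarization wells dropped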;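 further: wells of about 15 µL received 100 nL stock; the first replicate is given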
Target sequence (P08753 whole entry, looked up): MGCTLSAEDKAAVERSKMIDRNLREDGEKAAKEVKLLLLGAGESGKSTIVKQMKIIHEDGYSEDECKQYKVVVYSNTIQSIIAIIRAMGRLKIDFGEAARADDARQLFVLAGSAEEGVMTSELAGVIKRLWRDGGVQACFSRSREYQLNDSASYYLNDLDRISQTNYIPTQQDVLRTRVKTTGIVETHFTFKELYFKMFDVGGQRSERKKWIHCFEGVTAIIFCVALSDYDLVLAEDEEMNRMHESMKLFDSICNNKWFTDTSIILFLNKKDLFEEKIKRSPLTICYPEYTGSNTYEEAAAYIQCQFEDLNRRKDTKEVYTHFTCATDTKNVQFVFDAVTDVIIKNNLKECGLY
Sa growth inh second temp: second read-out of Sa growth inh, no call of its own (marks repeat the call); relative growth, %; measured here: growth at 30 °C;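 optical density after 20 h as mean of two plates; 100% = untreated growth and lower means inhibition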
An asterisk follows results filed as active; / = no result given; & = joins results of further samples. An unsorted share of the library. About 0.82% of those tested had a hit in this group.

Results follow in this order: HCMV UL50-53 inh	Sa growth inh	Sa growth inh second temp	GIV-Gai inh
1	O=C(Nc1cccc(C(=O)NCc2ccc3c(c2)OCO3)c1)C1=CSCCO1
 : -29	90	89	102
2	CC(C)=C1SC(N2CCN(c3ccccc3)CC2)=NC1=O
 : 5	93	102	/
3	CCCn1c(=O)c2sccc2n2c(CCCC(=O)NCc3cccnc3)nnc12
 : -18	103	86	104
4	COc1ccc(-c2noc(CNC(=O)COc3ccccc3)n2)cc1
 : /	106	91	108
5	CC1CN(C)C(C)C(/C=C(/C#N)C(N)=S)C1=O (stereo not drawn)
 : -13	103	67	98
6	CCC1=C(C(=O)OC)C(c2ccccc2OC)n2ncnc2N1 (stereo not drawn)
 : 4	92	92	100
7	Cc1cccc(-n2c(Cc3cccn3C)nnc2SCC(=O)NCC2CCCO2)c1C (stereo not drawn)
 : -16	/	/	95
8	COc1ccc(N2C(=O)/C(=C/c3ccc(OCC#N)c(OC)c3)C(=O)NC2=S)cc1
 : -19	/	/	103
9	CC1CC(=O)Nc2ccccc2N1S(=O)(=O)c1cn(C)cn1 (stereo not drawn)
 : -28	91	85	102
10	O=C(Nc1nnc(CCS(=O)(=O)c2ccc(Br)cc2)s1)c1ccco1
 : -12	/	/	107
11	Cn1nc(C(=O)Nc2ccc(Cl)cc2)ccc1=O
 : -19	105	92	/
12	N#CCCN1CCn2c3ccc(C4CCCCC4)cc3c3cccc1c32
 : /	82	85	105
13	CCn1c(SCC(=O)Nc2ccccc2)nc2c([nH]c3ccccc32)c1=O
 : /	126	81	102
14	CSc1ccccc1C(=O)NCCOc1ccccc1C
 : -23	81	96	/
15	CSc1nnc(CCNC(=O)NCc2ccccc2)n1C
 : 3	131	89	106
16	Cc1ccc(-c2nc(=O)c3ccccc3o2)cc1
 : 34	112	82	105
17	Cc1ccc(S(=O)(=O)Nc2ccc3[nH]c(=O)sc3c2)cc1C
 : /	95	50	104
18	COc1ccccc1N1CCN(C2CCN(Cc3cc(OC)c(OC)c(OC)c3)CC2)CC1
 : /	82	80	101
19	COc1ccccc1NC(=O)C1CCCN(c2ncnc3onc(-c4ccc(F)cc4)c23)C1 (stereo not drawn)
 : /	107	85	98
20	COc1ccc(NC(=O)Cn2cnc3c(nc4n3CCCCC4)c2=O)cc1Cl
 : /	104	84	98
21	CCOc1ccc(CN2CCNC(=O)C2CC(=O)OC)cc1 (stereo not drawn)
 : -32	93	87	109
22	O=C(CSCc1ccco1)c1ccccc1F
 : -15	103	84	/
23	CCn1cc2nc(SCc3cc(C)ccc3C)n(CCc3ccccc3)c(=O)c2n1
 : /	91	79	100
24	CC(c1ccccc1)n1cc(C(=O)NCC2COc3ccccc3O2)nn1 (stereo not drawn)
 : 17	94	90	104
25	COc1ccc(NC(=O)C2CCCN(S(=O)(=O)c3cccc4nonc34)C2)cc1Cl (stereo not drawn)
 : -1	112	101	108
26	CCC(C)n1nnc2cc(S(=O)(=O)N(C)CC(=O)N3CCN(c4ccccc4)CC3)ccc21 (stereo not drawn)
 : -19	/	/	105
27	CCCOc1ccc(C=Nc2ccc(N3CCN(CC)CC3)cc2)c(O)c1
 : 12	89	101	/
28	C=CCNC(=O)c1cnn2c(C(F)F)cc(-c3ccccc3)nc12
 : -56	94	81	101
29	O=C1CCC(C(=O)NCCCn2ccc3ccccc32)=NN1
 : -1	104	96	/
30	CCOC(=O)c1ccoc1COC(=O)c1ccc(C)c(C)c1
 : -18	124	101	/
31	Cc1csc2ncc(C(=O)N3CCC(C)CC3)c(=O)n12
 : -21	/	/	101
32	O=C(CSc1nc2c(oc3ccccc32)c(=O)n1CC1CCCO1)Nc1ccccc1 (stereo not drawn)
 : -19	110	87	102
33	COc1ccc(NC(=S)NNc2ccc(C(=O)O)cc2)cc1
 : -10	90	90	/
34	CCOC(=O)c1cccc(NC(=O)N2CCOCC2)c1
 : -12	108	74	106
35	Cc1ccc(-n2cc(-c3ccccc3)c3c(NC4CCCC4)ncnc32)cc1
 : /	93	58	104
36	O=C(CSc1c2c(nc3ccccc13)CCCC2)NCCC1=CCCCC1
 : /	125	82	109
37	COc1ccc(C)cc1NC(=O)CCC(=O)c1ccc2c(c1)OCCCO2
 : 5	88	94	/
38	CC1=C(C(=O)OC2CCCCCC2)C(c2ccc(Cl)cc2Cl)CC(=O)N1 (stereo not drawn)
 : -2	106	87	106
39	O=C(COC(=O)c1cc(-c2ccco2)nc2ccccc12)Nc1ccc(N2CCOCC2)cc1
 : -35	70	82	/
40	CCOC(=O)N1CCN(Cn2c(=S)sc3ccccc32)CC1
 : -32	87	39	/
41	Cc1c(CCNC(=O)C(C)(C)C)sc2nc(-c3ccc(F)cc3)nn12
 : /	108	87	95&100
42	CC(NC(=O)CSc1n[nH]c(=O)[nH]c1=O)C1CC2CCC1C2 (stereo not drawn)
 : -30	105	95	/
43	CC(C)NC(=O)CCn1c(SCc2c(F)cccc2Cl)nc2c(sc3ccccc32)c1=O
 : -20	107	83	102
44	COc1ccccc1OCC(=O)NCCS(=O)(=O)N1CCN(c2ccccc2OC)CC1
 : /	105	86	104
45	CN(C)S(=O)(=O)c1ccc2c(c1)nc(CCC(=O)N1CCc3ccccc3C1)n2C
 : -19	84	94	/
46	Cc1cc(Cl)ccc1OCC(=O)Nc1ccc(Br)cn1
 : -10	96	96	100
47	O=c1oc2ccccc2c2c1ncn2CCN1CCOCC1
 : -20	91	78	104
48	Cc1cccc(CN2C(=O)/C(=C\c3ccc(C(=O)NCCCN4CCN(C)CC4)cc3)Oc3ccccc32)c1
 : -33	111	33	98
49	Clc1nc2cc3c(cc2s1)OCO3
 : 2	94	87	108
50	CCCCOc1ccc(C2C(C(=O)Nc3ccccc3OC)=C(C)Nc3nnnn32)cc1OC (stereo not drawn)
 : -63	105	93	107
51	Cc1ccc(C(=O)Nc2ccccc2C(=O)OCc2cc(=O)n3nc(C(C)C)sc3n2)cc1
 : /	113	94	105
52	Cc1cc(=O)oc2c(CN3CCCC3)c(O)ccc12
 : -26	90	83	104
53	CCCSc1nc2cc(C)c(C)cc2n1CC(O)CO (stereo not drawn)
 : -30	104	73	/
54	CCc1cccc(C)c1NC(=O)C(CC)Sc1nc2ccncc2[nH]1 (stereo not drawn)
 : 11	101	88	106
55	CCOC(=O)c1cc(NC(=O)c2ccc(C(C)(C)C)cc2)c(=O)n2c1oc1ccccc12
 : -7	/	/	110
56	CN(C(=O)COC(=O)c1c[nH]c(=O)[nH]c1=O)C1CCCCC1
 : -6	87	91	/
57	Cc1cc2c(cc1S(=O)(=O)N(CCO)Cc1ccccc1)OCC(=O)N2
 : /	122	87	103
58	CCOc1ccc(NC(=O)Cn2nnc(-c3nc(-c4ccncc4)no3)c2N)cc1
 : /	98	83	109
59	CC(C(=O)N1c2ccccc2C(N(C(=O)c2cccc([N+](=O)[O-])c2)c2ccccc2)CC1C)N1C(=O)c2ccccc2C1=O (stereo not drawn)
 : 5	/	/	102
60	C=C1SC(Nc2ccc(F)cc2F)=NC1(CC)CC
 : -16	113	95	100

Sorted by the number under Sa growth inh second temp (smallest number first): 6 from the list above
No. | molecule | Sa growth inh | Sa growth inh second temp | GIV-Gai inh
40 | CCOC(=O)N1CCN(Cn2c(=S)sc3ccccc32)CC1 | 87 | 39 | /
52 | Cc1cc(=O)oc2c(CN3CCCC3)c(O)ccc12 | 90 | 83 | 104
44 | COc1ccccc1OCC(=O)NCCS(=O)(=O)N1CCN(c2ccccc2OC)CC1 | 105 | 86 | 104
49 | Clc1nc2cc3c(cc2s1)OCO3 | 94 | 87 | 108
60 | C=C1SC(Nc2ccc(F)cc2F)=NC1(CC)CC | 113 | 95 | 100
46 | Cc1cc(Cl)ccc1OCC(=O)Nc1ccc(Br)cn1 | 96 | 96 | 100

Fetched by compound from above (4):
Results follow in this order: HCMV UL50-53 inh	Sa growth inh	Sa growth inh second temp	GIV-Gai inh
28	C=CCNC(=O)c1cnn2c(C(F)F)cc(-c3ccccc3)nc12
 : -56	94	81	101
34	CCOC(=O)c1cccc(NC(=O)N2CCOCC2)c1
 : -12	108	74	106
2	CC(C)=C1SC(N2CCN(c3ccccc3)CC2)=NC1=O
 : 5	93	102	/
11	Cn1nc(C(=O)Nc2ccc(Cl)cc2)ccc1=O
 : -19	105	92	/

Next part
Results follow in this order: HCMV UL50-53 inh	Sa growth inh	Sa growth inh second temp	GIV-Gai inh
61	CS(=O)(=O)N(CC(=O)Nc1cccc(Cl)c1)c1ccccc1Cl
 : /	83	70	105
62	COc1ccc2cc(C(=O)NC(C)=O)c(=Nc3ccccc3)oc2c1
 : /	125	88	98
63	CCCSc1nc2ccccc2c(=O)n1C1CCCCC1
 : -18	84	89	98
64	Cc1ccccc1C1CC(=O)Nc2nc(N)[nH]c(=O)c21 (stereo not drawn)
 : 17	/	/	94
65	O=c1c2ccccc2c(=O)n2n1CC=CC2
 : -1	104	96	103
66	Cc1noc2c1C(c1cccc(Br)c1)C1=C(CC(c3ccccc3)CC1=O)N2 (stereo not drawn)
 : -13	/	/	104
67	CCSc1ncc(Cl)c(C(=O)NCCc2ccc(S(N)(=O)=O)cc2)n1
 : -20	/	/	105
68	COc1ccccc1N=C1SC(C)CN1C(=O)C1CCC1 (stereo not drawn)
 : 4	111	100	/
69	CCOC(=O)c1ccc(N2C(=O)c3n[nH]c(C)c3C2c2ccc(O)c(OC)c2)cc1 (stereo not drawn)
 : -12	89	61	106
70	COC(C(=O)N1CCCC1c1nnc(SCc2ccccc2)n1C)c1ccccc1 (stereo not drawn)
 : -8	99	83	100
71	CC(=O)NC(NCC12CC3CC(CC(C3)C1)C2)(C(F)(F)F)C(F)(F)F
 : 6	113	95	/
72	Cc1ccc(-c2noc(-c3cccn(CC(=O)Nc4ccc(Br)cc4)c3=O)n2)cc1
 : -17	/	/	106
73	COc1cc(CNc2ccccc2SC)ccc1O
 : -13	84	80	101
74	O=C(Nc1nnc(COc2ccc(Cl)cc2)s1)C1CCCCC1
 : 4	90	99	107
75	CCOc1ccc(CCNC(=O)c2ccc(CS(=O)(=O)Cc3ccccc3Cl)o2)cc1OCC
 : /	82	91	111
76	Cc1noc(C)c1CSCC(=O)NC1=NCCS1
 : -23	101	94	/
77	O=C(COC(=O)COc1cccc(Br)c1)Nc1c(Cl)cccc1Cl
 : 26	100	99	/
78	CN=C(Nc1cc(C)nn1-c1ccccc1)c1ccccc1F
 : -25	119	81	/
79	COc1ccc(CCNC(=S)NC2CC2)cc1OC
 : -44	78	88	104
80	COc1cccc(NC(=O)Cn2c(=O)n(-c3ccccc3)c(=O)c3ccc(C(=O)NCc4ccc5c(c4)OCO5)cc32)c1
 : -3	99	99	99
81	COC(=O)NC(Nc1sc2c(c1C(N)=O)CCC2)(C(F)(F)F)C(F)(F)F
 : -9	94	81	109
82	COC(=O)CSC1=C(C#N)C(=O)NC(c2ccccc2O)S1 (stereo not drawn)
 : /	100	81	91
83	CCC(C)(C)NC(=O)C1CCCN1S(=O)(=O)c1cc2c(cc1C)NC(=O)CO2 (stereo not drawn)
 : -7	/	/	105
84	CC(C)(C)C(=O)CSc1nnc(-c2cc(OCC(F)(F)F)ccc2OCC(F)(F)F)o1
 : /	101	85	99
85	Cc1nn(-c2ccccc2)c2sc(-c3noc(-c4ccccc4)n3)cc12
 : -18	/	/	110
86	COc1ccc(Nc2n[nH]nc2C(=O)Nc2ccc(C)cc2Cl)cc1
 : -12	/	/	107
87	CC1=C(C(=O)OCc2ccccc2)C(c2cccc(O)c2)C2=C(CC(c3ccccc3)CC2=O)N1 (stereo not drawn)
 : /	96	69	110
88	O=C(NC1CCCCC1)c1ccc(CSc2nc3cccnc3n2Cc2ccc(F)cc2)cc1
 : /	133	103	98
89	CC1CC1C(=O)OCC(=O)Nc1ccc(C(N)=O)cc1 (stereo not drawn)
 : -28	117	85	/
90	NC(=O)C1CCN(C(=S)Nc2ccccc2)CC1
 : 4	91	107	103
91	O=C(CSc1nnc2sc3ccccc3n12)Nc1ccc(Cl)c(C(F)(F)F)c1
 : -12	/	/	106
92	CCc1ccc(OCC(=O)N(Cc2ccc(C)o2)C2CCS(=O)(=O)C2)cc1 (stereo not drawn)
 : 13	107	98	99
93	CC1CCCCN1S(=O)(=O)c1ccc(N2CCCCS2(=O)=O)cc1 (stereo not drawn)
 : 2	95	97	113
94	Nc1ccccc1N=c1cc(-c2ccc3c(c2)OCO3)oc2ccccc12
 : /	95	90	99
95	COCCCNc1nc(NCc2ccc(C)cc2)c2cnn(C)c2n1
 : /	91	86	104
96	Cc1ccc2nc(N3CCN(C(=O)CC4(CC(=O)O)CCCC4)CC3)nc(-c3ccccc3)c2c1
 : -5	/	/	102

Screening data deposited in PubChem by ICCB-Longwood Screening Facility, Harvard Medical School.
